Assay outcomes from PubChem.
NPR1 antag = Natriuretic polypeptide receptor (hNpr1) antagonism - Primary qHTS; Atrial natriuretic peptide receptor 1 (Homo sapiens), P16066; Potency, µM (series often up to 46.3 µM), inactives show at the top dose activity change, negative = inhibition, hits mostly inhibitors; AID 1347048, 2019; HEK293 hNpr1 GloSensor cGMP, ANP-stimulated luminescence; 1.6% of 76,000 active; active = well fitted inhibition curve with a large enough effect; inconclusive = small, poorly fitted or top-dose-only effect; inactive = no such curve, though single readings can be large or run the other way;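 further: nearly all actives have a fitted effect of over 60% in size; nearly all hits also lower the signal before the agonist is added; a reference antagonist and vehicle were the controls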
Target sequence (P16066 whole entry, looked up): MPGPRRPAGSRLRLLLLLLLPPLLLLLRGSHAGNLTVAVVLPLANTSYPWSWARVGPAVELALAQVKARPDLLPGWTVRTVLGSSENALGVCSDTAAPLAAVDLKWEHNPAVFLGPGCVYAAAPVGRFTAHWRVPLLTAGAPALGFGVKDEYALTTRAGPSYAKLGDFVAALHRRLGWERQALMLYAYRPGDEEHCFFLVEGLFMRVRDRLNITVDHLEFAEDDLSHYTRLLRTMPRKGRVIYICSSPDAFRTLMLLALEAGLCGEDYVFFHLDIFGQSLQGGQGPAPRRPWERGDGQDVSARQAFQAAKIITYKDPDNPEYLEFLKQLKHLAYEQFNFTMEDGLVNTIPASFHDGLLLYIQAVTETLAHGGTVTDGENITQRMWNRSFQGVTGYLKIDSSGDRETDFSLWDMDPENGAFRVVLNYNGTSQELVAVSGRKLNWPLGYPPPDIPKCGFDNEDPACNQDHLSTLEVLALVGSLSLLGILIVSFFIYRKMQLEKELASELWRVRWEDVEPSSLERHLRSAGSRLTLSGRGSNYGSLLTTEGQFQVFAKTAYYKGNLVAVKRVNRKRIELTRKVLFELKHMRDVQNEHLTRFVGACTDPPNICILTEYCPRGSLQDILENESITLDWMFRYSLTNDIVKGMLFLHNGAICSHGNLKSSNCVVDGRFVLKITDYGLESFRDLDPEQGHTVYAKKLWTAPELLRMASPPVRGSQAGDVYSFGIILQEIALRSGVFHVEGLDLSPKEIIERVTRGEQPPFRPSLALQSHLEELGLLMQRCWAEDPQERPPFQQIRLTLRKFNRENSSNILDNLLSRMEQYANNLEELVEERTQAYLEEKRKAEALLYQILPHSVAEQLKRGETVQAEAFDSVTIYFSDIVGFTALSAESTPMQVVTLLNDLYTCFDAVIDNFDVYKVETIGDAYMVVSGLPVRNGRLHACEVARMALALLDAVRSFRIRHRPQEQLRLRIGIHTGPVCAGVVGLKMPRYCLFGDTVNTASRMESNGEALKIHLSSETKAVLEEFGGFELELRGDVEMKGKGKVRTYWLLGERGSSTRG
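HEK293 cells stably expressing human Npr1 and cGMP GloSensor pGS-40F, loaded 2 h with 2% GloSensor reagent, given compound 30 min at room temperature. Luminescence read before and 20 min after 0.1 nM hNppA.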
Starred values were filed as active, the others as inactive; u = inconclusive; [ ] = dose if it differs, or a comment. On the % scale 0 is the no-effect control and ±100 the full control effect; potency means the concentration at half of the fitted maximal effect.

SMILES | NPR1 antag
COC(=O)c1ccccc1NC(=O)CN1C(=O)NC(c2ccc(C)cc2)C2=C1COC2=O (configuration not stated) | 2.2%
CN1CCN(c2ncnc3sc4c(c23)CCNC4)CC1 | 1.3%
COCCNC(=O)c1ccc2c(c1)N(C)C(CC(=O)Nc1cccnc1)CO2 (configuration not stated) | -0.4%
CCOc1ccccc1C(=O)N1CCCC2(C1)NC(=O)N(Cc1ccc(Cl)cc1)C2=O (configuration not stated) | -22.7%
C[C@@H](NC(=O)c1ccc2c(c1)OCO2)c1onc(-c2ccc(F)cc2)c1C(=O)O | 2.7%[70.6 µM]
CCC(=O)NCc1ccccc1-c1ccnc(C)c1 | 1.9%
O=C(c1c(F)cccc1F)N1CCC(n2cc(-c3nc(-c4ccccc4)no3)nn2)CC1 | 1.12µM*
CN1[C@@H](CCC(=O)NCc2cccs2)CNC(=O)[C@@H]2[C@H]1CCN2Cc1cccc(Cl)c1 | -0.9%
COc1cccc(-c2cc3c(ccn3C)c(C(=O)NCc3c(C)cc(C)[nH]c3=O)n2)c1 | 5.4%[70.6 µM]
COCC1CN(C(C)=O)CC12CCN(Cc1ccccc1C(F)(F)F)CC2 (configuration not stated) | -2.8%
Cc1ccc(S(=O)(=O)N2C[C@@H](C(N)=O)[C@H](C3CCN(C)CC3)C2)cc1Cl | 5.3%
O=C(Nc1ccc(Oc2ccccc2)cc1)O[C@@H]1CO[C@H]2[C@@H]1OC[C@@H]2NC(=O)c1cnccn1 | -24.8%
COCC1CN(S(=O)(=O)c2cccnc2)CC12CCNCC2 (configuration not stated) | 1.1%
CN1CCN([C@@H]2[C@H](O)[C@H](CO)O[C@@H]2CNC(=O)c2ccco2)CC1 | -0.8%[70.6 µM]
COC(=O)COc1cccn2c(=O)c(-c3cc(C)n(-c4ccc(Cl)c(Cl)c4)n3)c(C)nc12 | -11.2%
COc1ccccc1OCc1cc(C(=O)N2CCCCCCCC2)n[nH]1 | -2.5%
COc1ccc(S(=O)(=O)N2CCC(n3cnnc3-c3ccccc3)CC2)cc1 | -22.0%
CN(CC(=O)N1CCc2c(c(-c3nncn3Cc3ccccc3)nn2C)C1)S(=O)(=O)c1cnc[nH]1 | 1.4%
CCN1CCC(OCCCNC(=O)C2(CCO)CC23CCOCC3)CC1 (configuration not stated) | 1.0%
O=C(NCc1ccccn1)C1c2ccccc2CC(=O)N1Cc1ccccc1 (configuration not stated) | -3.2%
CCC1(O)CCC12CCN(C(=O)c1cc(C)n(C)n1)CC2 (configuration not stated) | 5.1%
O=C1COc2ccc(S(=O)(=O)N3CCCn4nc(CO)cc4C3)cc2N1 | 6.7%
COC[C@]1(O)CCN(C(=O)c2csc(C)c2)CC1(C)C | 9.4%
Cn1cc(CN2C[C@H](O)C[C@H]2c2nc(-c3cccc([N+](=O)[O-])c3)no2)c2ccccc21 | -22.8%[70.6 µM]
O=C(c1ccccc1F)N1CCC2(CCCCO2)CC1 | 3.1%
Cc1cc(C(=O)N2CC[C@@](C)(O)[C@@H](O)C2)c2cc(Cl)ccc2n1 | 8.6%
Cc1ccc(C(=O)N2CCNC(=O)C2Cc2ccccc2)c(F)c1 (configuration not stated) | 0.0%
O=c1c2nc(OCc3ccc(F)cc3)ccc2ncn1C1CC1 | -4.0%[70.6 µM]
Cc1ccccc1C1CCCN1Cc1ncccc1C(=O)O (configuration not stated) | 11.0%
COc1ccc(C(C)NC(=O)c2c(C)oc3ccn(Cc4cccc(F)c4)c(=O)c23)cc1 (configuration not stated) | -13.6%

Arranged by number of heavy atoms (highest first): part of the list above.
SMILES | NPR1 antag
COc1ccc(C(C)NC(=O)c2c(C)oc3ccn(Cc4cccc(F)c4)c(=O)c23)cc1 (configuration not stated) | -13.6%
COc1ccc(S(=O)(=O)N2CCC(n3cnnc3-c3ccccc3)CC2)cc1 | -22.0%
O=C1COc2ccc(S(=O)(=O)N3CCCn4nc(CO)cc4C3)cc2N1 | 6.7%
Cc1ccc(C(=O)N2CCNC(=O)C2Cc2ccccc2)c(F)c1 (configuration not stated) | 0.0%
Cc1cc(C(=O)N2CC[C@@](C)(O)[C@@H](O)C2)c2cc(Cl)ccc2n1 | 8.6%
Cc1ccccc1C1CCCN1Cc1ncccc1C(=O)O (configuration not stated) | 11.0%
O=C(c1ccccc1F)N1CCC2(CCCCO2)CC1 | 3.1%

Next section.
SMILES | NPR1 antag
N#Cc1cccc(CN2CC[C@@H]3OCC(=O)N(c4ccccc4)[C@H]3CC2)c1 | -11.0%[70.6 µM]
O=C(CN1CCC2(CC1)NC(=O)CC2C(=O)O)NCCc1ccc(F)cc1 (configuration not stated) | -0.6%
COCCOC(=O)C1=C(C)N=C2SC=C(CC(=O)N3CCOCC3)N2C1c1ccc(C)cc1C (configuration not stated) | -24.5%
CC1(Cc2ccc3c(c2)OCO3)CCCN(C(=O)c2ccc3n[nH]nc3c2)C1 (configuration not stated) | u
Cc1ccc2[nH]nc(C(=O)N3CCCC(N(C)CCc4ccccc4)C3)c2c1 (configuration not stated) | 0.9%
c1cn(CCCN2CCCC2)c(-c2cc3n(n2)CCCNC3)n1 | 4.3%
CS(=O)(=O)Nc1ccc([C@H]2OCC(=O)N[C@@H]2CO)cc1 | -6.0%[70.6 µM]
Cc1ccc(OCc2cc(C(=O)NC(Cc3ccccc3)c3ccccc3)no2)cn1 (configuration not stated) | u
COC1CCOC2(CCN(C(=O)CCn3nc(C)cc3C)CC2)C1 (configuration not stated) | 0.0%
CNC(=O)c1noc(CNC(=O)C(c2cccc(F)c2)N(C)C)n1 (configuration not stated) | 1.1%
CC(C)NC(=O)N1C[C@@H](Oc2cccnc2)C[C@H]1C(=O)N1CCOCC1 | -11.0%
Cc1ccc(C#N)c(N2CCCC(c3nccn3CC3CCC3)C2)n1 (configuration not stated) | -12.1%
COc1ccc(C(=O)NC2CCN(c3cnn(C)c(=O)c3)CC2)cc1OC | 3.3%
Cc1ccc(C)c(OCc2cc(C(=O)N(C)Cc3cnccn3)no2)c1 | 4.2%
Cc1cccc(OCC(=O)N2CC(c3nnc(C(C)C)o3)C3(CCOCC3)C2)c1 (configuration not stated) | 2.3%

Quoted from the listing.
Under NPR1 antag, Cc1ccc(C#N)c(N2CCCC(c3nccn3CC3CCC3)C2)n1 (configuration not stated) shows -12.1%
Under NPR1 antag, CS(=O)(=O)Nc1ccc([C@H]2OCC(=O)N[C@@H]2CO)cc1 shows -6.0%[70.6 µM]

Additional compounds follow:
SMILES | NPR1 antag
COCc1nc(-c2ccc(OC3CCN(C(=O)c4nn(C)c5ccccc45)C3)cc2)no1 (configuration not stated) | 11.2µM*
CCc1ccc(NC(=O)Cn2c(=O)c(-c3noc(C)n3)c3n(c2=O)CCCC3)cc1 | 1.1%
CN(Cc1ccccc1)C(=O)[C@H]1C[C@@H](O)[C@H](O)[C@@H]2N=C(Nc3ccc(Cl)cc3)S[C@@H]21 | -1.7%
Cc1cc(C(F)(F)F)nn1CC(=O)NC1CCc2n[nH]c(=O)n2CC1 (configuration not stated) | 4.2%
CN(C)C[C@@H]1CN(c2ccccn2)C[C@H]1NC(=O)c1cccn1C | 4.5%
COc1ccc(OC)c(S(=O)(=O)N2CCc3nn(CC4CC4)c(=O)n3CC2)c1 | -6.9%
N#Cc1ccc(C(=O)N2CCCC(n3cc(-c4nc(C5CC5)no4)nn3)C2)cc1 (configuration not stated) | -0.6%
COc1ccc(-c2cccc(CN3CCCC(C)(NC(C)=O)C3)c2)cc1OC (configuration not stated) | 1.0%[70.6 µM]
CN1[C@@H](CCC(=O)NCc2ccccc2)CNC(=O)[C@@H]2[C@H]1CCN2C1CCOCC1 | -6.7%[70.6 µM]
O=C(CCc1nc2ccccc2[nH]1)N1CCCOC(Cn2cccn2)C1 (configuration not stated) | 0.3%
COc1cccc(-c2nc3cc(SC)ccc3cc2CN(C)Cc2ccno2)c1 | -15.5%
Cn1cccc1C(=O)N1CCN(c2cc(-c3ccc(Cl)cc3)[nH]n2)CC1 | -20.3%
CN1C(=O)CCC2(CNC(=O)c3cccc4nccnc34)CCCC=C12 (configuration not stated) | 2.8%
CNC(=O)[C@@H]1C[C@@H](N)CN1C(=O)c1cnc(-c2ccccc2)nc1C | 3.2%
CCNC(=O)c1cccnc1OC1CCN(C(=O)c2cccc(Cl)c2)C1 (configuration not stated) | 1.0%
O=C(c1cc(F)c(F)c(F)c1)N1CCC2(CCCNC2)C1 (configuration not stated) | 6.2%
CC(C)c1ccc(CNC(=O)CCC2CCN(C(=O)c3ccccc3F)CC2)cc1 | u
COCc1ccc2c(c1)c(OC(C)(C)C(=O)NCc1ccncc1)nn2Cc1ccccc1 | 3.5%
COc1cc([C@@H]2c3cc4c(cc3[C@H](O)[C@@H](CO)[C@@H]2C(=O)NCC2CC2)OCO4)cc(OC)c1OC | -19.7%
Cc1cc(=O)n(CC(=O)N2CCCC(C)(Cc3ccc4c(c3)OCO4)C2)nc1C (configuration not stated) | 2.4%
O=C1Nc2ccccc2CC12CCN(Cc1ccccc1C(F)(F)F)C2 (configuration not stated) | -19.2%
COc1ccc(CNC[C@H]2Cn3c(-c4ccc(Cl)cc4)cnc3CO2)cc1 | 25.1µM*
COc1ccc(-c2noc([C@@H]3C[C@@H](O)CN3Cc3ccc(C)cc3)n2)cc1 | -0.4%[70.6 µM]
Cc1ccccc1NC(=O)C1CC(=O)N(c2n[nH]c3cc(Br)ccc23)C1 (configuration not stated) | 3.0%
COc1ccccc1CN(Cc1ccccc1OC)[C@H]1C[C@@H](Cc2cc(CN3CCOCC3)on2)C1(C)C | -0.6%
Cc1cc(CN2CCc3n[nH]c(=O)n3CC2)n(C)n1 | -4.2%
COCCn1c(C)cnc1CCNC(=O)c1ccnn1C | 5.7%
CCCn1cnc(NC(=O)NC2CC(C)(C)NC(C)(C)C2)n1 | 15.0%
COc1ccc(C(=O)N2CCC3(CC2)CC(O)CCO3)c(OC)c1 (configuration not stated) | -3.9%
Cc1cc(C(=O)N(Cc2ccncc2)Cc2cccc(OCCc3ccc(F)cc3)c2)n(C)n1 | -27.9%
CCC(C)(C)C(=O)N1CCC(N2C(=O)CCC2C(=O)NCc2ccccc2)CC1 (configuration not stated) | -1.0%
Cc1ccc(C(=O)N2C[C@@H](Oc3cccnc3)C[C@H]2C(N)=O)s1 | 6.5%
Cc1cccc(N2CCN(C(=O)C3c4ccccc4CC(=O)N3C)CC2)c1C (configuration not stated) | -22.9%
c1ccc(COC2CCN(c3nccc(-c4cccnc4)n3)CC2)nc1 | 0.8%
COc1ccc(NC(=O)c2c(C)oc3ccn(Cc4cccc(F)c4)c(=O)c23)c(OC)c1 | -9.0%
Cc1ccc(C(=O)N2CCCCCNC(=O)[C@@H]3CCC[C@@H]32)s1 | 2.4%
O=C(Nc1ccc2c(c1)OCCO2)C1CC(=O)N(c2n[nH]c3ccccc23)C1 (configuration not stated) | 3.5%
COC[C@]1(O)CCN(C(=O)CCc2ccccc2)CC1(C)C | 3.2%
CC(=O)c1ccc(-c2nc(C3CCOC3)no2)s1 (configuration not stated) | 1.4%
CC(C)C1CN(Cc2cscn2)CCC(=O)N1Cc1ccc(F)cc1 (configuration not stated) | 0.4%
CCc1noc(-c2cn(C3CCN(C(=O)c4sccc4C)C3)nn2)n1 (configuration not stated) | -27.9%
O=C(NC1CCCN(c2cc(-c3ccccc3)[nH]n2)C1)c1ccc(Br)o1 (configuration not stated) | -17.8%
C[S+](=O)([O-])N1CCCN(c2nc3ncccc3o2)CC1 | 8.9%[70.6 µM]
COc1ccc(CNC(=O)[C@@H]2CCC[C@@H](NC(=O)c3ccccc3)CN(C)C(=O)C2)cc1 | -4.1%
CC(C)c1ccc(C(=O)NC[C@@H]2CC[C@H]3C[C@@H]2C3(C)C)cc1 | 5.1%[70.6 µM]
CCc1ncc(C(=O)NC(c2ccc(C)cc2)c2cccs2)cn1 (configuration not stated) | -16.7%
Cc1nn(C)c(C)c1CCN(C)C(=O)CCC[C@H]1NC[C@@H]2C[C@H]1CN(Cc1ccccc1)C2 | 0.9%
COCCC(=O)N[C@H]1CC[C@]2(C)CC[C@@H]([C@H](C)C(=O)NC(C)(C)C)[C@H](O)[C@H]2[C@@H]1C | 6.9%[70.6 µM]
COCCN1C(=O)CCC2(CNC(=O)c3ccncc3)CCC=C12 (configuration not stated) | -13.7%
Cc1cccc(OCCc2noc(C3CCCN3C(=O)C3CCCC3)n2)c1 (configuration not stated) | -25.9%
O=C1CC(c2noc(-c3ccc(-c4ccccc4)cc3)n2)CN1c1ccc(F)cc1 (configuration not stated) | -18.9%
O=C(c1nc(-c2ccccc2)c2ccccn12)N1CCOCC1 | -12.5%[70.6 µM]
O=C(c1cccnc1OC1CCN(S(=O)(=O)Cc2ccccc2)C1)N1CCCCC1 (configuration not stated) | -2.6%
O=C(c1cccc(C(F)(F)F)c1)N1CCC(c2n[nH]c(=O)n2Cc2ccc(F)cc2)CC1 | -10.7%
CN1CCN(C(=O)c2cc3n(n2)CC(c2ccc(Br)cc2)OC3)CC1 (configuration not stated) | -11.4%

These rows are one share of the data. The share of hits here may be higher or lower than overall.
